High-throughput results (PubChem)
VDR inhibitor – Inhibitors of the vitamin D receptor (VDR): qHTS | Vitamin D3 receptor (Homo sapiens), P11473 | VDR-SRC2-3 peptide fluorescence polarization, 2 h | Potency, µM, for the others: max response, negative = inhibition, most hits filed as inhibitors | 0.93% of 400,000 active | AID 504847, 2011; active means well fitted inhibition curve with a large enough effect; inconclusive means small, poorly fitted or top-dose-only effect, or another doubt; inactive means no such curve, though single readings can be large or run the other way; further: series mostly up to about 120 µM
Target sequence (P11473 whole entry, looked up): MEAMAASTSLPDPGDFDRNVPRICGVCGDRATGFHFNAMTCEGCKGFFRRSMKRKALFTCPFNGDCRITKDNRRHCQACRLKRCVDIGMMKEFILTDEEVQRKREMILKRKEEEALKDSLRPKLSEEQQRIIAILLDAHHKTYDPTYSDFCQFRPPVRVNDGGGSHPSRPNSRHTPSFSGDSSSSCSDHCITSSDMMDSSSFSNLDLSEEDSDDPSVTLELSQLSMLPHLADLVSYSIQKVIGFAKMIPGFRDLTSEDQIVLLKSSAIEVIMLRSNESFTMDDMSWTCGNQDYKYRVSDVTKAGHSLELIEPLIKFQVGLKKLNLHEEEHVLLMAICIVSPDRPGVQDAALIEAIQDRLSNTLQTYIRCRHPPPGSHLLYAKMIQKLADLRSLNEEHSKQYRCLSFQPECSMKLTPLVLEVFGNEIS
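Inhibition of the VDR/SRC2-3 peptide interaction is quantified by fluorescence polarization. Compounds (23 nl, pintool) incubate with the reagents for 2 hours at ambient room temperature.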
* marks the source's active call; other numbers are inactive results; u = inconclusive. On the % scale 0 is the no-effect control and ±100 the full control effect; potency means the concentration at half of the fitted maximal effect. Not all compounds are listed (hit frequency here may not be typical).

VDR inhibitor	Structure
3%	O=c1cc(O)c2ccccc2n1Cc1ccccc1Cl
-15%	CCCn1c(N)c(Sc2ccccc2)c(=O)n(CCC)c1=O
-7%	CC(=O)c1cccc(NC(=O)CN(c2cc(C)cc(C)c2)S(=O)(=O)c2c(C)noc2C)c1
-8%	O=C(CC(=O)N/N=C/c1ccc(O)cc1)N/N=C/c1ccc(O)cc1
2%	CN(C)C(/C=C/Nc1ccc(F)cc1)=C(C#N)C#N
u	Cc1ccc(C(=O)Nc2nc(=O)n(C(=O)CC(C)C)s2)cc1
39%	Clc1ccc(SCc2csc(N3CCOCC3)n2)cc1
u	COCCCNC(=O)Cn1c(=O)n(CCCCCC(=O)NCc2ccc3c(c2)OCO3)c(=O)c2sccc21
-22%	COc1ccc(S(=O)(=O)N/N=C(/C)c2ccncc2)c(OC)c1
0%	O=C(NCc1ccccc1CN1CCCC1)c1cccc(N2CCCC2=O)c1
-3%	CN(CC(=O)O)c1ccc(S(=O)(=O)N2CCOCC2)cc1[N+](=O)[O-]
-1%	FC(F)(F)c1nc2ccccc2nc1N/N=C/c1c(Cl)cccc1Cl
6%	O=c1cc(N2CCN(Cc3ccccc3)CC2)[nH]c(=O)n1Cc1ccc(F)cc1
-11%	CCOc1ccc(N(CC(=O)N2CCN(c3ccccc3OC)CC2)S(=O)(=O)c2ccc(F)cc2)cc1
6%	CCc1nnc(NC(=O)CSc2nnc(-c3ccc(S(=O)(=O)N(CC)CC)cc3)n2CC)s1
-3%	CC(C)OC(=O)Cn1cc(C#N)c2ccccc21
-5%	CCCCOCCCNC(=O)CN1C(=O)c2ccccc2C1=O
0%	Nc1ccn([C@@H]2O[C@H](CO)[C@@H](O)[C@@H]2O)c(=O)n1
-6%	CCOC(=O)C1CCN(C(=O)Cn2nc(C)n3c(cc4c(OC)cccc43)c2=O)CC1
9%	Cc1ccc(S(=O)(=O)Cc2ccc(C(=O)N3CCC(C(N)=O)CC3)o2)cc1
3%	CCOC(=O)C(NC(=O)CC)(Nc1ccccc1)C(F)(F)F (stereo unspecified)
7%	Cc1ccc(NS(=O)(=O)c2cc(Br)cc3c2N(C(=O)C2CC2)CC3)cc1C
-15%	CCc1c(C)c2ccc(OCC(=O)N(C)C)c(C)c2oc1=O
5%	COc1ccc(C(=O)N2CCN(c3ccc(NC(=O)c4ccco4)cc3)CC2)cc1
-6%	CC(=O)c1ccc(N(CC(=O)NC2CCCC2)C(=O)c2ccc(C)s2)cc1
-23%	COc1ccc([C@H]2CC(=O)C=C(c3cccc(F)c3OC)C2)cc1
2%	COc1cc(OC)c(S(=O)(=O)N2CCN(C(=O)c3ccccc3F)CC2)cc1NC(C)=O
19%	CC1CN=C(NC2CCCCC2C)S1 (stereo unspecified)
-9%	CC(C)CCCC(C)NC(=O)c1cc(S(=O)(=O)N2CCCCC2)ccc1N1CCOCC1 (stereo unspecified)
u	COc1c2n(C)ccc3c-2n(c(=O)c1=O)c1ccccc31
-1%	COC(=O)c1ccc(C2Nc3cccc4cccc(c34)N2)cc1
14%	Cc1ccc2ncnc(NCCCCCC(=O)O)c2c1
11%	CCc1ccc(CNC(=O)c2cnc3sc(N4CCCC4)nn3c2=O)cc1
-15%	COC(=O)c1ccc(C23CC4(C2)[C@H](CN(Cc2ccc(-c5ccccc5)cc2)[C@@H]4c2ccccc2)C3c2ccc(C(F)(F)F)cc2)cc1 (stereo partly specified)
-25%	COCCn1c(SCC(=O)NCc2ccc3c(c2)OCO3)nnc1-c1c[nH]c2ccccc12
-15%	Cc1nn(C)c(C)c1S(=O)(=O)N1CCC(C(=O)NCC2COc3ccccc3O2)CC1 (stereo unspecified)
0%	CC(=O)c1c(C)[nH]c(C(=O)Nc2cccnc2)c1C
-4%	COCCn1nnnc1C(c1ccc(OC)cc1)N1CCN(c2ccccc2F)CC1 (stereo unspecified)
-8%	Cc1c(OC(C)C(=O)NC2CC(C)(C)NC(C)(C)C2)ccc2c3c(c(=O)oc12)CCC3 (stereo unspecified)
14%	Cc1cccc(NC(=S)N(C)C)c1C
13%	O=[N+]([O-])c1ccc(S(=O)(=O)N/N=C/c2ccco2)cc1
14%	CCCC(=O)Nc1c2c(nn1-c1cccc(C)c1C)CS(=O)(=O)C2
-3%	Cc1cccc(Cn2c(=O)n(Cc3ccc4c(c3)OCO4)c(=O)c3oc4ccccc4c32)c1
-12%	CCCCn1c(N)c(N(CC(C)C)C(=O)c2ccc(S(=O)(=O)N(CC)c3ccccc3)cc2)c(=O)[nH]c1=O
-9%	CN(C)C(=O)CC12CC3CC(C1)CC(CC(=O)N(C)C)(C3)C2
u	COc1cc(-c2ccc(Nc3ccccc3C(=O)O)c(OC)c2)ccc1Nc1ccccc1C(=O)O
-11%	CCOc1cc(N2CCOCC2)c(OCC)cc1NC(=O)c1ccc(C)s1
10%	CCn1c(=O)n(CC)c2cc(N)ccc21

As a short view, some entries already given:
VDR inhibitor	Structure
-15%	COC(=O)c1ccc(C23CC4(C2)[C@H](CN(Cc2ccc(-c5ccccc5)cc2)[C@@H]4c2ccccc2)C3c2ccc(C(F)(F)F)cc2)cc1 (stereo partly specified)
-25%	COCCn1c(SCC(=O)NCc2ccc3c(c2)OCO3)nnc1-c1c[nH]c2ccccc12
-15%	Cc1nn(C)c(C)c1S(=O)(=O)N1CCC(C(=O)NCC2COc3ccccc3O2)CC1 (stereo unspecified)
0%	CC(=O)c1c(C)[nH]c(C(=O)Nc2cccnc2)c1C
-4%	COCCn1nnnc1C(c1ccc(OC)cc1)N1CCN(c2ccccc2F)CC1 (stereo unspecified)
-8%	Cc1c(OC(C)C(=O)NC2CC(C)(C)NC(C)(C)C2)ccc2c3c(c(=O)oc12)CCC3 (stereo unspecified)
14%	Cc1cccc(NC(=S)N(C)C)c1C
13%	O=[N+]([O-])c1ccc(S(=O)(=O)N/N=C/c2ccco2)cc1
14%	CCCC(=O)Nc1c2c(nn1-c1cccc(C)c1C)CS(=O)(=O)C2
-3%	Cc1cccc(Cn2c(=O)n(Cc3ccc4c(c3)OCO4)c(=O)c3oc4ccccc4c32)c1
-12%	CCCCn1c(N)c(N(CC(C)C)C(=O)c2ccc(S(=O)(=O)N(CC)c3ccccc3)cc2)c(=O)[nH]c1=O
-9%	CN(C)C(=O)CC12CC3CC(C1)CC(CC(=O)N(C)C)(C3)C2
u	COc1cc(-c2ccc(Nc3ccccc3C(=O)O)c(OC)c2)ccc1Nc1ccccc1C(=O)O
-11%	CCOc1cc(N2CCOCC2)c(OCC)cc1NC(=O)c1ccc(C)s1
10%	CCn1c(=O)n(CC)c2cc(N)ccc21

Next section:
VDR inhibitor	Structure
0%	Cn1nc(C(=O)Nc2cc(Cl)ccc2N2CCCC2)c2ccccc2c1=O
-16%	Cc1nn2c(=O)cc(CSCC(=O)Nc3ccccc3Cl)nc2s1
11%	Cc1nc(SCc2ccc(Cl)c(Cl)c2)ncc1C(=O)O
-20%	O=C(NCCc1ccccn1)c1ccc(COc2ccccc2)o1
9%	COc1ccc(C=O)c(OC)c1
5%	COc1ccc(CN2CCCC(C(=O)c3ccc4c(c3)OCO4)C2)c(F)c1 (stereo unspecified)
4%	COC(=O)C1C(c2ccccc2)C(C(=O)O)C1c1ccccc1 (stereo unspecified)
20%	CN=C(c1ccc([N+](=O)[O-])cc1)N1CCCCC1
8%	COc1cccc(CNC(=O)C2CCCN(S(=O)(=O)c3cn(C)cn3)C2)c1 (stereo unspecified)
u	COc1ccccc1-n1c(=S)[nH]c2c(sc(=S)n2-c2ccccc2C)c1=O
4%	CCOC(=O)c1[nH]c2cc(OC)c(OC)cc2c1NC(=O)CN(C)C1CCCCC1
3%	Cc1ccc2oc(=O)n(Cc3ccccc3Cl)c2c1
12%	CCCc1nnc(NC(=O)CCC(=O)N2CCCCC2)s1
-6%	CCCCCc1ccc(-c2cn(CN3C(=O)c4ccccc4C3=O)nn2)cc1
15%	CCC(C)[C@H](NC(=O)N1CC(=O)Nc2ccccc21)C(=O)Nc1nccs1 (stereo partly specified)
16%	CC(C)CC(c1nnnn1CC1CCCO1)N1CCN(c2nc3ccccc3s2)CC1 (stereo unspecified)
11%	O=C(Nc1ccc(Br)cc1F)c1cc(S(=O)(=O)NC2CCCC2)ccc1F
-13%	Cc1oc2c(C)c3oc(=O)c(CCC(=O)NCCCN4CCOCC4)c(C)c3cc2c1C
1%	CCC(C(=O)O)C1OC(C(C)C(O)C(C)C(=O)C(CC)C2OC3(C=CC(O)C4(CCC(C)(C5CCC(O)(CC)C(C)O5)O4)O3)C(C)CC2C)C(C)CC1C (stereo unspecified)
-23%	CCO/C=C1/C(=O)N(c2ccc(OC)cc2)C(=O)c2ccccc21
3%	Cc1ccc(C(=O)Nc2ccc3c(c2)CCC3)cc1S(=O)(=O)N1CCOCC1
1%	NS(=O)(=O)c1cccc(C(=O)OCC(=O)NC2CCCc3ccccc32)c1 (stereo unspecified)
17%	Cc1cccc(C(=O)NCCN2CCN(c3ccccc3)CC2)c1
-5%	COC(C(=O)Nc1c(F)cccc1F)c1ccccc1 (stereo unspecified)
11%	Cc1ccccc1N1CCN(C2CCCN(C(=O)c3csc(C(C)C)n3)C2)CC1 (stereo unspecified)
-20%	O=C(Oc1ccccc1)n1c(=S)oc2ccccc21
-28%	Cc1c(CCC(=O)NCCCn2ccnc2)c(=O)oc2c(C)c3oc4c(c3cc12)CCCC4
-13%	COc1ccc(NS(=O)(=O)c2cccc(C(=O)OCC(=O)NC3CC3)c2)cc1
1%	O=C(CSc1nc2ccccc2o1)NCc1ccco1
u	CNC(=O)C1CCN(S(=O)(=O)c2c(C)noc2/C=C/N(C)C)CC1
-10%	CC(C)Oc1ccc(C2CC(=O)N(c3cccc(/C=C/C(=O)O)c3)C2=O)cc1 (stereo unspecified)
29%	Cc1c(/C=N/NC(=O)C(NC(=O)c2ccc3c(c2)OCO3)C(C)C)c2ccccc2n1C (stereo unspecified)
-6%	CC(C)(SC(=S)N1CCCCCC1)C(=O)O
6%	O=c1oc2ccccc2cc1-c1nc(-c2cccs2)no1
2%	O=C1OC(c2ccc(Cl)cc2)=N/C1=C\c1cccnc1
-6%	CCOc1cc(NC(=S)NCCCN2CCOCC2)c(OCC)cc1NC(=O)c1ccc(C)cc1
6%	CC(Oc1ccccc1)C(=O)N=C1SC2CS(=O)(=O)CC2N1c1ccc(F)cc1 (stereo unspecified)
10%	N#Cc1cnn(-c2ccccc2)c1NC(=O)CN1CCOCC1
20%	COc1ccccc1NC(=O)CSc1nnc(C)n1CC1CCCO1 (stereo unspecified)
u	Cc1ccc(OCCOC(=O)c2nc3nccc(C)n3n2)cc1
-12%	CN(Cc1nccs1)C(=O)C1CCC(=O)N(CCCc2ccccc2)C1 (stereo unspecified)
-4%	COc1cccc(CNC(=O)Nc2cccs2)c1
-7%	CC(C)CN1C(=O)c2ccc(C(=O)NCc3ccc4c(c3)OCO4)cc2C1=O
-15%	CC1(c2ccccc2)NC(=O)N(CC(=O)Nc2ccc(S(=O)(=O)Nc3ncccn3)cc2)C1=O (stereo unspecified)
2%	O=C(O)CCc1nc2cccnc2n1Cc1ccccc1
5%	CCCNC(=O)CSC1=N/C(=C/c2ccc(F)cc2)C(=O)N1CC
13%	O=C(CN1C(=O)NC2(CCCC2)C1=O)Nc1ccccc1N1CCCC1
-19%	CN(C)CCNC(=O)C(c1ccccc1)c1ccccc1
1%	CC1CCN(C(=O)CSc2nnc(Cc3ccccc3)o2)CC1
3%	CCOC(=O)Cn1nnc(-c2ccc([N+](=O)[O-])cc2)n1
8%	Cc1cc(Cl)c2oc(C(=O)N(CCO)Cc3ccccc3)c(C)c2c1
3%	O=C(NCCN1CCNC1=O)C1CCC(=O)N(Cc2cccc(C(F)(F)F)c2)C1 (stereo unspecified)
u	N#Cc1c(-c2ccc(F)cc2)cc(-c2ccccc2)nc1SCC(=O)NCC(=O)O
-5%	CCOC(=O)c1ccc(-c2ccc(/C=C(\C#N)C(=O)Nc3ccc(OCC)cc3)o2)cc1
-2%	COc1cccc2cc(C(=O)N(Cc3cccs3)CC3CCCO3)c(=O)oc12 (stereo unspecified)
-22%	CC(=NNS(=O)(=O)c1cccc([N+](=O)[O-])c1)c1ccc(-n2ccnc2)cc1
-4%	COc1ccc(OC)c(NC(=O)CCS(=O)(=O)c2cc3c(cc2C)NC(=O)CO3)c1
8%	CCc1cccc(NC(=O)C2CCN(S(=O)(=O)c3c(C)noc3C)CC2)c1
11%	O=C(O)CSCC(=O)N1CCN(S(=O)(=O)c2cc(Cl)cc(Cl)c2)CC1
12%	CCOC(=O)c1cc(-c2ccccc2)n(CC(=O)Nc2ccc(OCC)cc2)c1C

(list continues)
VDR inhibitor	Structure
7%	CC(CCCN1CCCC1)Nc1ccnc2cc(Cl)ccc12 (stereo unspecified)
-2%	Cc1cccc(C(=O)Nc2cccc(Br)c2)c1[N+](=O)[O-]
9%	COc1ccc(Cn2c(=O)[nH]c3cc(C(=O)N4CCN(c5ccccc5OC)CC4)ccc3c2=O)cc1
3%	Cc1ccc(Cl)cc1N(Cc1ccc(C(=O)NCc2cccnc2)cc1)S(=O)(=O)c1ccccc1
-13%	COc1cccc(CN(C)C(=O)COc2cccc3c2OC(C)(C)C3)c1OC
17%	Cc1ccc(Cn2nnc3c(=O)n(Cc4cc(C)ccc4C)cnc32)cc1
-10%	Cc1ccc(C(c2cccc(Br)c2)c2c(C)[nH]c3ccccc23)s1 (stereo unspecified)
13%	Cc1nnc(NC(=O)c2ccc(S(=O)(=O)C(F)F)cc2)s1
-13%	Cc1ccc(S(=O)(=O)CCC(=O)N(CCN2CCOCC2)c2nc3ccccc3s2)cc1
-22%	Cc1cc(C(=O)N2CCN(S(=O)(=O)c3ccccc3)CC2)c(C)o1
-7%	COc1cccc(/C=C/C(=O)OCC(=O)Nc2ccc3[nH]c(=O)[nH]c3c2)c1OC
-7%	O=C(Nc1nnc(SCc2ccccc2)s1)c1cccc([N+](=O)[O-])c1
-14%	CCOc1ccccc1CNCCOC
